Assay outcomes from PubChem.
Polio RdRp inh: poliovirus RdRp elongation inhibitors, primary screen, biochemical, fluorescence polarization, total intensity; Genome polyprotein (Poliovirus type 1 (strain Mahoney)), P03300; poliovirus polymerase elongation; active compounds read low; % elongation, % (compound at 16.7 µg/mL); 150,000 tested, 0.66% active; AID 588519, 2011; in the data active means % elongation below about 90%; further: some results filed as inactive read as strong as hits
Target sequence (P03300 1749-2209 limits assumed): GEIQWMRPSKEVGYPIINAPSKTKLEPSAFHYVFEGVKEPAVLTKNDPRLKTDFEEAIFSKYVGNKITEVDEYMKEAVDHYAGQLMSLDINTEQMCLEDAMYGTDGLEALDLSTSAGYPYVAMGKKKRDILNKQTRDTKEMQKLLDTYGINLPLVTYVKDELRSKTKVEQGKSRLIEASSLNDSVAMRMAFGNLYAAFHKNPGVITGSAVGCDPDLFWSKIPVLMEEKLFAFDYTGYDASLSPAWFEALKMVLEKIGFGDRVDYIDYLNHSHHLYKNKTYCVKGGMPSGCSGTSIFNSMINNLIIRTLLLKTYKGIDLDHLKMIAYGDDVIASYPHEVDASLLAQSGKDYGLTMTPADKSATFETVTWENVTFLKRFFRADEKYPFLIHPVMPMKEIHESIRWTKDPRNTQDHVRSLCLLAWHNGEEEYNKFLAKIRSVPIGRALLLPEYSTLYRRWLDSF
Polio RdRp inh intensity: also measured in Polio RdRp inh; calls as there; % elongation; measured here: total intensity read-out; formula for this scale not given here;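 total fluorescence in place of polarization; lower means less elongation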
Active calls of the source: *. Not all compounds are listed, so the mix of outcomes need not match the whole.

SMILES | Polio RdRp inh | Polio RdRp inh intensity
Cc1cccc(-c2nc(CCNC(=O)COc3ccccc3)cs2)c1 | 104 | 112
CCOc1ccc(NC(=O)Cc2coc3ccc(C)cc23)cc1 | 104 | 96
Cc1oc2ccc(O)c(CN3CCCCC3)c2c1C(=O)Nc1cccc(C(F)(F)F)c1 | 107 | 111
O=C(CCn1ccc2cc(S(=O)(=O)N3CCCC3)ccc21)NCc1ccccc1Cl | 104 | 111
O=C(Cn1c(=O)n(CCc2ccccc2)c(=O)c2c3c(sc21)CCCC3)Nc1ccc(F)c(F)c1 | 108 | 112
COc1ccc(S(=O)(=O)NCCc2csc3nc(-c4ccccc4)nn23)cc1OC | 109 | 113
O=C(/C=C\c1ccc2c(c1)OCO2)NC1CC(=O)N(c2ccc(F)cc2)C1 (stereo not given) | 108 | 109
CCc1ccc(CN2CCc3nc(N4CCN(CC)CC4)ncc3C2)cc1 | 100 | 108
O=S(=O)(c1ccccc1)n1nc(-c2ccc(Cl)cc2)nc1NCc1ccccc1 | 106 | 106
COc1ccc(-c2nc3sc(CCNC(=O)c4ccccc4C)c(C)n3n2)cc1 | 104 | 107
COc1cc(NC(=O)CN2CCCN(S(=O)(=O)c3ccc(F)cc3)CC2)cc(OC)c1 | 107 | 112
CCCN(C(=O)Cn1cnc2sc(C)c(S(=O)(=O)N3CCN(c4ncccn4)CC3)c2c1=O)c1cccc(C)c1 | 108 | 111
CC(=O)N1c2ccccc2C(=O)C1N1CCN(c2ccc(Cl)cc2)CC1 (stereo not given) | 109 | 114
COc1cc(NC(=O)C(NS(=O)(=O)c2ccc3c(c2)CCCC(=O)N3)C(C)C)cc(OC)c1 (stereo not given) | 101 | 105
O=C(c1cccs1)N1CCCc2cc(NS(=O)(=O)c3ccc(F)cc3)ccc21 | 115 | 103
Cc1cccc(-n2c(/C=C/c3ccccc3O)nc3ccccc3c2=O)c1 | 106 | 110
CCOC(=O)c1sc2ccccc2c1S(=O)(=O)Nc1ccc(C(C)=O)cc1 | 101 | 105
CCOC(=O)C1CCN(c2nc(-c3ccc(Br)cc3)nc3ccccc23)CC1 | 111 | 111
CCOC(=O)c1ccc(Nc2nc(C(=O)OCC)nc3ccccc23)cc1 | 102 | 103
Cc1ccc(N(CC(=O)N2CCN(c3cccc(C)c3C)CC2)S(=O)(=O)c2c(C)nn(C)c2C)cc1 | 104 | 101
COc1cc(NC(=O)N2CCc3c(sc4c3CCCC4)C2c2ccccc2)cc(OC)c1OC (stereo not given) | 106 | 112
COC(=O)C(Cc1c[nH]c2ccccc12)NC(=O)COc1ccc(Cl)cc1Cl (stereo not given) | 108 | 106
CCSc1nc(-c2ccccc2F)nc2c1Cc1c(CO)cnc(C)c1O2 | 113 | 111
CCCCn1c(SCc2ccccc2C)nc2ccsc2c1=O | 109 | 108
Cc1ccc(CNC(=O)c2ccc(-c3nc(CS(=O)(=O)c4ccc(C)cc4)c(C)o3)cc2)cc1 | 100 | 108
CCOc1cc(C2CC(=O)Nc3nc(SCc4ccccc4)[nH]c(=O)c32)ccc1O (stereo not given) | 109 | 102
CCOc1cc(CNC(=O)Cn2c(=O)c3cccn3c3ccc(F)cc32)cc(OCC)c1OCC | 106 | 108
Cc1c(Cl)cccc1NC(=O)c1oc2ccc(S(=O)(=O)N3CCC4(CC3)OCCO4)cc2c1C | 105 | 92
Cc1c(NC(=O)c2ccc(Br)o2)cccc1-c1nc2ccccc2o1 | 104 | 105
COc1ccc(CCNC(=O)c2ccc(Cn3c(=O)[nH]c4cc(OC)c(OC)cc4c3=O)cc2)cc1OC | 107 | 108
O=C(NCc1cccs1)c1ccc(CSc2nc3cccnc3n2Cc2ccccc2)cc1 | 113 | 115
COc1ccccc1NC(=O)N1CCN(c2nnc(C)c3c(C)n(-c4ccccc4)nc23)CC1 | 92 | 76
O=C(Nc1ccc(Cl)cc1Cl)c1cc(S(=O)(=O)N2CCCCCC2)ccc1F | 108 | 108
CN(C)c1ccc(-c2nnc3n(Cc4ccccc4)c(=O)c4ccccc4n23)cc1 | 107 | 113
Fc1ccc(Nc2nc3ccccc3c3nncn23)c(Cl)c1 | 109 | 111
Cc1c(C(=O)N2CCC(C(=O)Nc3ccc(F)c(Cl)c3)CC2)sc2nc[nH]c(=O)c12 | 106 | 113
Cc1ccc(CNC(=O)c2cc(-c3ccc(C)cc3)nc3n[nH]c(-c4cccc([N+](=O)[O-])c4)c23)cc1 | 107 | 108
COc1ccc(N2C(=O)CS(=O)(=O)C23C(=O)N(Cc2ccc(C)cc2)c2ccccc23)cc1Cl (stereo not given) | 106 | 111
O=C(Nc1ccc(N2CCC(c3ccccc3)C2)c(C(=O)O)c1)c1ccc(Cl)cc1 (stereo not given) | 106 | 111
CC(C)OC(=O)c1c(NC(=O)c2cc3nc(-c4ccccc4)cc(C(F)(F)F)n3n2)sc2c1CCCC2 | 93 | 98

Next section, overlapping the part above by 5 compounds.
SMILES | Polio RdRp inh | Polio RdRp inh intensity
Cc1c(C(=O)N2CCC(C(=O)Nc3ccc(F)c(Cl)c3)CC2)sc2nc[nH]c(=O)c12 | 106 | 113
Cc1ccc(CNC(=O)c2cc(-c3ccc(C)cc3)nc3n[nH]c(-c4cccc([N+](=O)[O-])c4)c23)cc1 | 107 | 108
COc1ccc(N2C(=O)CS(=O)(=O)C23C(=O)N(Cc2ccc(C)cc2)c2ccccc23)cc1Cl (stereo not given) | 106 | 111
O=C(Nc1ccc(N2CCC(c3ccccc3)C2)c(C(=O)O)c1)c1ccc(Cl)cc1 (stereo not given) | 106 | 111
CC(C)OC(=O)c1c(NC(=O)c2cc3nc(-c4ccccc4)cc(C(F)(F)F)n3n2)sc2c1CCCC2 | 93 | 98
COc1ccc2c(CNCc3ccccc3OC)c(C(=O)O)n(Cc3ccc(F)cc3Cl)c2c1 | 109 | 109
Cc1cc(C)cc(OCC(=O)N(Cc2ccc(Cl)cc2)C2CCS(=O)(=O)C2)c1 (stereo not given) | 102 | 104
COc1ccc(CNC(=O)CCc2c(C)nc3c4cccnc4nn3c2C)cc1 | 106 | 107
CCOc1ccc(CC(=O)NCc2ccc3c(c2)CCN3C(=O)c2ccccc2)cc1OCC | 111 | 107
Cc1ccc(NC(=O)C2(c3cccs3)CCOCC2)cc1Cl | 112 | 118
CC1CCN(S(=O)(=O)c2ccc3c(c2)CCN3)CC1 | 103 | 99
COc1ccc(S(=O)(=O)Nc2cc(-c3cn4ccc(C)cc4n3)ccc2C)cc1OC | 105 | 109
COc1cc(NC(=O)Cc2c(C(=O)O)c(C)cn2C)cc(OC)c1 | 104 | 107
CCOc1ccc(C(=O)c2cn(CC(=O)Nc3ccc(F)cc3)c3cc4c(cc3c2=O)OCCO4)cc1 | 103 | 108
Cc1ccc(NC(=O)c2ccc(F)c(S(=O)(=O)NCCc3ccccc3)c2)cc1F | 117 | 110
CCc1cccc(NC(=O)C2Cc3ccccc3N2C(=O)c2ccccc2)c1 (stereo not given) | 105 | 98
Cc1ccc(N2CCN(c3nc4ccccc4c4nnc(C)n34)CC2)c(C)c1 | 97 | 102
CC(=O)Nc1ccc(C)cc1-c1nc2ccccc2n(CC(=O)c2ccc(Cl)cc2)c1=O | 110 | 101
COc1ccc(CNC(=O)CN2N=C(c3ccccc3)CCC2=O)c(OC)c1 | 110 | 114
CCN(c1ccc(C)cc1)S(=O)(=O)c1nnc(NC(=O)c2cccs2)s1 | 113 | 107
COc1cccc(N(Cc2nnc3n2CCCCC3)C(=O)Nc2ccccc2)c1 | 114 | 106
CC1=C(c2cccc(Cl)c2)S(=O)(=O)NC1=NCc1ccccc1C | 104 | 94
COc1ccccc1N1CCN(S(=O)(=O)CCNC(=O)Cc2ccc(Cl)cc2)CC1 | 106 | 107
COC(=O)c1ccc(NC(=O)CC2C(=O)N(c3cccc(F)c3)C(=O)N2CC(C)C)cc1 (stereo not given) | 99 | 101
Cc1c(Cl)cccc1NC(=O)c1cc(-c2cccs2)on1 | 102 | 104
O=C(CCC(=O)N1CCSc2ccccc21)Nc1ccc(Cl)cc1 | 108 | 111
CCS(=O)(=O)c1nc(S(=O)(=O)c2ccc(C)cc2)c(NCc2ccccc2Cl)s1 | 107 | 106
CCOC(=O)c1c(C)[nH]c(C)c1S(=O)(=O)NCC(=O)N1CCN(c2cccc(C)c2)C(C)C1 (stereo not given) | 104 | 102
Cc1ccccc1OCC(=O)N1CCC(c2nc3ccccc3s2)CC1 | 106 | 103
COc1ccc(C2=NN(CCC(=O)NCCc3ccccc3)C(=O)CC2)cc1 | 103 | 99
O=C(NCCc1ccccc1Cl)c1ccc(Cn2c(=O)c3cccn3c3cccnc32)cc1 | 107 | 110
CCOc1ccc(C(=O)OCc2cc(=O)n3nc(C4CCCCC4)sc3n2)cc1 | 101 | 110
Cc1ccc2oc(C(=O)Nc3nc(-c4ccc(F)cc4)ns3)c(C)c2c1 | 104 | 102
Cc1cccc(NC(=O)CSc2nnc3scc(-c4ccccc4)n23)c1 | 103 | 108
COc1cccc(Cn2c(C)c(CNCc3ccccc3Cl)c(C(=O)O)c2C)c1 | 106 | 105
CCCCn1c(=O)c2oc3ccccc3c2n(Cc2cccc(F)c2)c1=O | 110 | 110
CCn1c(CN2CCCCC2)nc2cc(NC(=O)COc3ccccc3C(C)(C)C)ccc21 | 99 | 93
COc1ccccc1NC(=O)Cn1c(=O)n(CC2CCC(C(=O)NCCc3ccccc3)CC2)c(=O)c2ccccc21 (stereo not given) | 110 | 110
CCOc1ccccc1CNC(=O)CSc1n[nH]c(-c2ccccc2)n1 | 109 | 107
COc1ccc(NC(=O)C2=C(C)Nc3nc(SCc4ccc(Cl)cc4)nn3C2c2cccc(OC)c2OC)cc1 (stereo not given) | 113 | 114
O=C(NCCc1ccc(Cl)cc1)c1ccc(CSCc2ccc(Cl)cc2)o1 | 113 | 111
CCc1ccc2ncc(S(=O)(=O)c3ccc(Cl)cc3)c(N3CCN(CC)CC3)c2c1 | 104 | 108
O=C(Cn1ccc2cc(S(=O)(=O)N3CCCC3)ccc21)NCc1ccc(Cl)cc1 | 108 | 113
CCCNc1c(NC(=O)c2ccc(OCCC)cc2)c(=O)oc2ccccc12 | 109 | 110
COc1ccc(Cl)cc1NC(=O)Cn1nc(C(F)(F)F)c2c1CCC2 | 106 | 112

Profiles from above. Screens in order: Polio RdRp inh | Polio RdRp inh intensity
O=C(CCC(=O)N1CCSc2ccccc21)Nc1ccc(Cl)cc1 in the list: 108 | 111
CCOC(=O)c1c(C)[nH]c(C)c1S(=O)(=O)NCC(=O)N1CCN(c2cccc(C)c2)C(C)C1 (stereo not given) in the list: 104 | 102
COc1ccc(Cl)cc1NC(=O)Cn1nc(C(F)(F)F)c2c1CCC2 in the list: 106 | 112

Next section.
SMILES | Polio RdRp inh | Polio RdRp inh intensity
CCc1ccc(C2NC(=O)c3[nH]nc(-c4cccc(OC)c4)c32)cc1 (stereo not given) | 104 | 106
O=C(Nc1ccc2nc(SCC(=O)N3CCCC3)sc2c1)c1ccc(F)cc1 | 107 | 116
O=C(NCCc1ccc(Cl)cc1)c1ccc2c(c1)N(Cc1ccccc1)CCS2 | 102 | 104
O=C(CCSCCc1ccccn1)Nc1ccccc1C(F)(F)F | 104 | 108
CCC(=O)OCc1cc(=O)n2nc(C3CC3)sc2n1 | 109 | 113
COc1cc(C(=O)N2CCC(c3ccncc3)CC2)cc(OC)c1OC | 109 | 109
CCOc1cccc(NC(=O)c2ccc(F)c(S(=O)(=O)N(CC)c3cccc(C)c3)c2)c1 | 107 | 105
CCOc1ccc(CNCCNC(=O)c2nonc2N)cc1 | 109 | 109
COc1ccccc1N1CCN(c2c3c(nc4nncn24)CCC3)CC1 | 103 | 103
O=C(CN1CCSc2ccccc21)N1CCCCC1 | 109 | 105
COc1cc(NC(=O)CN2CCCN(Cc3cccc(F)c3)S2(=O)=O)cc(OC)c1 | 110 | 107
O=C(Nc1ccc(Cl)cc1F)c1cc(S(=O)(=O)NCc2ccc3c(c2)OCO3)ccc1F | 107 | 108
COc1ccc(-c2noc(CNC(=O)c3cc(OC)c(OC)c(OC)c3)n2)cc1 | 103 | 107
COc1cc(OC)c(NC(=O)NCc2cccn2Cc2ccccc2)cc1Cl | 107 | 110
CCOC(=O)c1[nH]c2ccccc2c1NC(=O)c1cc(Cl)ccc1Cl | 103 | 106
Cc1ccc(CNC(=O)c2cc3c(=O)oc4ccc(C)cc4c3s2)cc1 | 104 | 108
CCOC(=O)c1c(NC(=O)c2ccc(S(=O)(=O)N(CC(C)C)CC(C)C)cc2)sc2c1CCN(CC)C2 | 168 | 244
CCCc1cnc2c(c1SCC(=O)N(C)c1ccccc1)c(=O)n(C)c(=O)n2C | 100 | 96
CCOc1ccc(NC(c2ccc(Cl)cc2)c2nnc(-c3cccc(F)c3)o2)cc1 (stereo not given) | 106 | 112
COc1ccc(C(=O)Nc2ccc(-c3nc4ncccc4o3)cc2)cc1 | 108 | 110
COC(=O)c1c(C)oc2ccc(N(C(=O)c3ccncc3)S(=O)(=O)c3ccc(OC)cc3)cc12 | 101 | 102
COc1ccccc1N1CCN(C(=O)c2oc3ccccc3c2N)CC1 | 105 | 109
O=C(NCCc1ccccc1)c1ccc(CSc2nc3ccncc3n2Cc2ccc(F)cc2)cc1 | 106 | 110
CCOc1ccccc1NS(=O)(=O)c1cnc(N)nc1 | 108 | 106
COc1ccccc1OCC(=O)N(Cc1ccc(Cl)cc1)CC1CCCO1 (stereo not given) | 102 | 108
COc1ccc(NC(=O)CCCS(=O)(=O)c2nc(-c3ccc(OC)c(OC)c3)cc(C(F)(F)F)n2)cc1OC | 103 | 105
Cc1ccc(N(CC(=O)Nc2cccc(Cl)c2C)S(=O)(=O)c2c(C)noc2C)cc1 | 110 | 109
CCn1c(=O)c(=O)n(CC)c2cc(N3CCCCC3)c(NC(=O)c3ccc(OC)c(OC)c3)cc21 | 101 | 102

Taken from the entries so far, two compounds:
SMILES | Polio RdRp inh | Polio RdRp inh intensity
COC(=O)c1c(C)oc2ccc(N(C(=O)c3ccncc3)S(=O)(=O)c3ccc(OC)cc3)cc12 | 101 | 102
COc1ccccc1N1CCN(C(=O)c2oc3ccccc3c2N)CC1 | 105 | 109
